High-throughput results as filed in PubChem.
TRPML1 agonist = agonists of human TRPML1 channel; TRPML1-expressing cells, Ca2+ dye fluorescence, FDSS; host cell line not named in the record; reference of the full effect not given here; activation, % (test concentration not listed); hit rate 0.12% among 410,000; AID 624414; in the data active = activation above about 50%; inconclusive = about 30% to 50%; inactive = below about 30%; further: 0% is about no effect; the text of the record puts the active cut at 80%
Target sequence (Q9GZU1 whole entry, looked up): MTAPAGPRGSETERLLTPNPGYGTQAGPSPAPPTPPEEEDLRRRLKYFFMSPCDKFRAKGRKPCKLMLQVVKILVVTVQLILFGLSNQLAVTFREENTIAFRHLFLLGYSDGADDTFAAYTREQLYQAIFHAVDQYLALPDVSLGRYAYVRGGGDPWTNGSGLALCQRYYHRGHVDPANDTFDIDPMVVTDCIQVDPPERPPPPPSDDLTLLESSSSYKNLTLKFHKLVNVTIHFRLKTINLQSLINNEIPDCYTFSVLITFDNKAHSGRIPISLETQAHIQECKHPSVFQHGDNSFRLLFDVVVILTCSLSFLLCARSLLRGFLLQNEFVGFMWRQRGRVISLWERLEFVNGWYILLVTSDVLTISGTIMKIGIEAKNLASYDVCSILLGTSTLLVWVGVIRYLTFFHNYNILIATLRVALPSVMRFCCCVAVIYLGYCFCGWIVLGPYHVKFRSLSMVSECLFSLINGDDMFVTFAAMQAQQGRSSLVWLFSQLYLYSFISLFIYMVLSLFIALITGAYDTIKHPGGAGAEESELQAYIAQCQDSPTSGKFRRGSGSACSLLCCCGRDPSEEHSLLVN
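Agonist activity was taken from a 110 s kinetic Ca2+ dye read on the FDSS after pinning compounds onto TRPML1-DL cells. The cells were seeded at 1,500/well with Tet inducer, incubated about 16 h, then dye-loaded at room temperature.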
gsp antag = antagonizes gsp, the McCune-Albright syndrome mutation | Potency, µM (highest dose often 76.9 µM), inactives show top-dose activity change, negative = inhibition, usual class: inhibitors | hit rate 0.4% among 340,000 | gsp-mutant cells, cAMP HTRF, 30 min; control for the full effect not named in the record | AID 624288; active = falling curve of any shape with a large fitted effect; inconclusive = falling curve, mostly with a smaller effect; inactive = flat or rising curve; cell line not stated here;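 further: intracellular cAMP measured with PDE inhibitor Ro 20-1724 present during compound exposure; potency means the concentration at half of the fitted maximal effect; on the % scale 0 is the no-effect control and ±100 the full control effect; nearly all actives have a fitted effect of over 65% in size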
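HTRF cAMP read-out (cAMP-d2 plus anti-cAMP antibody-K in lysis buffer, 30 min RT). Before lysis, cells are exposed to compounds with […] for 30 min at 37C in DPBS containing Ca/Mg, BSA and Tween 20.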
ClpP mod = qHTS Assay for Activators of ClpP. ATP-dependent Clp protease proteolytic subunit (Bacillus subtilis (strain 168)), P80244. purified B. subtilis ClpP, FRET peptide cleavage, 20 min. Potency, µM (highest dose often 57.5 µM), for the others: at the top dose activity change, negative = active. hit rate 1.9% among 340,000. AID 651965, 2013; active = well fitted falling curve with a large enough effect; inconclusive = small, poorly fitted or top-dose-only effect; inactive = no such curve, though single readings can be large or run the other way; further: potency means the concentration at half of the fitted maximal effect; the source files actives as falling curves though it sought activators and does not explain the sign; nearly all actives have a fitted effect of over 65% in size; many hits overshoot -100%
Target sequence (P80244 whole entry, looked up): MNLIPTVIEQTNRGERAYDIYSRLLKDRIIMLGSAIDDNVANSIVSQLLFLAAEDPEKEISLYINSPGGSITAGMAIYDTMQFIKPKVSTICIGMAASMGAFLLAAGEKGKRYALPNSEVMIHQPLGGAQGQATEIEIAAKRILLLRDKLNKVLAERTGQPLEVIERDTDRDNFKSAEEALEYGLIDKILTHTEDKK
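ClpP 10 microg/mL final, pH 8 Tris/KCl buffer with BSA, glycerol, Tween-20; compound pinned in; FRET-FV substrate; RT 20 min; Ex320/Em430; ΔFRET vs ADEP 5.8 microM, DMSO, no enzyme.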
gsp agonist = activates gsp, the McCune-Albright syndrome mutation; gsp mutant cells, cAMP HTRF, 30 min; control for the full effect not named in the record; Potency, µM (doses to about 76.9 µM), inactives show at the top dose activation (cAMP increase), actives largely listed as activators; hit rate 0.13% among 340,000; active = well fitted activation curve with a large enough effect; inconclusive = small, poorly fitted or top-dose-only effect, or another doubt; inactive = no such curve, though single readings can be large or run the other way; cell line not stated here;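 further: phosphodiesterase inhibitor Ro 20-1724 added with compounds to block cAMP breakdown; potency means the concentration at half of the fitted maximal effect; nearly all actives have a fitted effect of over 60% in size; about a fifth of the inactives were tested at one dose only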
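Cells stably selected in G418 were plated at 2000/well, grown 16-24 hr, then given compounds in DMSO with the PDE inhibitor […] (300 uM solution added) for 30 min at 37C; cAMP was read by HTRF.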
TRPML1 blocker = inhibitors of human TRPML1 channel. Q9GZU1. TRPML1-inducible cells, Ca2+ dye fluorescence, FDSS; stronger effect = lower value; inhibition of EC80 agonist-evoked calcium signal. activity change, negative = inhibition, % (concentration not given with the values). hit rate 0.02% among 390,000. AID 624415; in the data active means activity change below about -50%; inconclusive means about -30% to -50%; inactive means above about -30%;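 further: stimulus is agonist 54-4 at its EC80 concentration; on the % scale 0 is the no-effect control and ±100 the full control effect; compound concentration not given in the record; the text of the record puts the active cut at -80%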
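Calcium fluorescence in TRPML1-DL cells induced overnight with Tet: a 110 s read after compound pin addition, then a 110 s antagonist read after challenge with 54-4 at 4 uM final (EC80).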
Menin MLL FP FL = inhibitors of human menin-MLL interaction, wild-type MLL peptide; 290,000 tested, under 10 active; Fluorescence polarization, fluorescein-MLL peptide displacement from menin; FP activity change, % at 61.4 µM; inconclusive = falling polarisation curve, or a change in total fluorescence; inactive = total fluorescence flat and polarisation flat or rising; no compound was filed as active; the % refers to the polarisation; negative = inhibition;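 further: % of control where 0% means no effect; inhibitors lower the polarisation; unlabelled MLL peptide was the positive control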
An asterisk follows results filed as active; ? = inconclusive; · = not tested or not shown; & = joins results of further samples; [ ] = remark or other dose.

Assay codes: A = TRPML1 agonist; B = gsp antag; C = ClpP mod; D = gsp agonist; E = TRPML1 blocker; F = Menin MLL FP FL
Cc1cc(=O)oc2c(C)c(OCC(=O)c3ccccc3)ccc12
  A: 1.4; B: 16%; C: -10%; D: -23%; E: -11; F: 3.5

O=C(c1ccc(Cl)cc1)C(CN1CCCC1)c1ccccc1 (stereo unspecified)
  A: 0.4; B: 14%; C: 0.9%; D: 11%; E: -27; F: -0.5

Cc1cccc(C(=O)NNc2ncnc3c2cnn3-c2ccc(C)cc2C)c1
  A: 0.8; B: ·; C: -1.9%; D: ·; E: 1; F: ·

COc1cc(OC)cc(C(=O)Nc2cc3nn(-c4ccccc4)nc3cc2Cl)c1
  A: -0.1; B: ·; C: 3.9%; D: ·; E: 6; F: ·

CCn1c(CNC(=O)c2ccccc2F)nnc1SCC(=O)NC1CCCCC1C (stereo unspecified)
  A: 4.1; B: 2%; C: 0.7%; D: -8%; E: -6; F: 0.3

CCCC(=O)Nc1ccc(-c2nc3ncccc3o2)cc1
  A: ·; B: 1%; C: 4.0%; D: 13%; E: ·; F: 2.5

C/C(N)=C(/C#N)C(=O)COC(=O)c1ccncc1
  A: -0.1; B: 8%; C: -9.4%; D: -15%; E: 7; F: 2.1

CCOC(=O)C1C2C=CC(CC2)N1c1ccccc1 (stereo unspecified)
  A: -0.3; B: 4%; C: -0.3%; D: -8%; E: 4; F: ·

COc1cccc(CNC(=O)Cn2ncn3c(cc4ccccc43)c2=O)c1
  A: -0.3; B: ·; C: -21%; D: ·; E: 1; F: ·

CC(NC(=S)NCCc1ccccc1)C(c1cccs1)N1CCN(Cc2ccccc2)CC1 (stereo unspecified)
  A: 0.7; B: -11%; C: 2.8%; D: -88%[inhibitor]; E: 16; F: -2.8

CCC(C)N(C(=O)COc1ccccc1C#N)C1CCS(=O)(=O)C1 (stereo unspecified)
  A: -0.4; B: 18%; C: 0.9%; D: 1%; E: -16; F: ·

Cc1ccccc1OCC(=O)Nc1ccc2nc(SCc3ccccc3)sc2c1
  A: -0.7; B: ·; C: -1.3%; D: ·; E: 7; F: ·

COc1cccc(NC(=S)/C(=C(\[O-])c2ccc([N+](=O)[O-])cc2)[n+]2ccccc2)c1
  A: ·; B: 1%; C: -1.3%; D: 10%; E: ·; F: -0.8

O=C(Cc1ccc(S(=O)(=O)N2CCOCC2)s1)N1CCN(S(=O)(=O)c2ccc(Cl)cc2)CC1
  A: 0.1; B: -18%; C: 0.7%; D: -21%; E: -1; F: ·

Cc1cccc(-n2ncc3c(NCCOCCO)ncnc32)c1
  A: -0.4; B: ·; C: 4.1%; D: ·; E: -2; F: ·

CCCC(=O)Nc1ccc(C(=O)n2nnc3ccccc32)cc1
  A: 1.3; B: 8%; C: -28%; D: -41%[inhibitor]; E: 11; F: 5.9

Cc1ccc2nc(-c3ccccc3)cc(C(=O)N(C)CC(=O)Nc3ccccc3Br)c2c1
  A: 2.9; B: ?; C: ·; D: 11%[15.4 µM]; E: -5; F: ·

Cc1ccc(Cn2ccc(=O)c(OCc3ccccc3)c2C)cc1
  A: 1.4; B: 5%; C: 0.6%; D: 0%; E: 0; F: -4.2

CCOC(=O)N1CCN(c2nc(C(F)(F)F)nc3c(C)cc(C)cc23)CC1
  A: 1.4; B: 6%; C: ?; D: 14%; E: 22; F: -2.0

CCOC(=O)Nc1nnc(-c2ccc(OC)cc2)s1
  A: 2.0; B: -3%; C: 13µM*; D: -29%; E: 9; F: -0.3

COc1ccc(OC)c(NC(=O)CSc2nc3n[nH]c(C)c3c(=N)n2-c2cccc(Cl)c2C)c1
  A: 2.3; B: 1%; C: ·; D: 25%; E: 31; F: 1.6

COc1ccc(CN(C)C(=O)c2cc(S(=O)(=O)Nc3ccccc3F)ccc2C)c(OC)c1
  A: 0.4; B: -19%; C: -1.6%; D: -1%; E: 7; F: ?

COc1ccc(OC)c2sc(N(CCCN(C)C)C(=O)c3ccco3)nc12
  A: 0.0; B: ·; C: -1.8%; D: ·; E: -17; F: ·

CC(=O)N1c2ccccc2CC1C(=O)N1CCN(c2ccccc2)CC1 (stereo unspecified)
  A: -0.2; B: ·; C: 0.1%; D: ·; E: -1; F: ·

COc1ccc(NC(=O)Nc2cccc3c2O[C@H](CN(C)C(=O)Nc2ccccc2)[C@@H](C)CN([C@H](C)CO)C3=O)cc1
  A: -0.1; B: -7%; C: -1.7%; D: ·; E: 15; F: ·

CCC(C)NC(=O)/C(=C/c1ccco1)c1ccccc1 (stereo unspecified)
  A: -0.2; B: -9%; C: 25µM*; D: -37%[inhibitor]; E: -4; F: 15

COc1ccc(CNC(=O)CNC(=O)[C@@H]2Cc3ccccc3CN2)cc1
  A: -0.9; B: 3%; C: 0.3%; D: -13%; E: 39; F: ·

N#CCCN(Cc1ccncc1)C(=S)NC1CC2C=CC1C2 (stereo unspecified)
  A: -0.8; B: 5%; C: ·; D: 9%; E: 11; F: -2.9

COC(=O)NCC(c1cccnc1)N1CCN(c2ccccc2)CC1 (stereo unspecified)
  A: -0.1; B: -3%; C: -3.0%; D: -2%; E: -5; F: 2.7

Cc1ccc(NC(=O)C2CCCN(c3cnccn3)C2)c(C)c1 (stereo unspecified)
  A: 0.3&2.4; B: 8%; C: -1.4%&-13%; D: 18%; E: ?; F: ·

Gathered by group: those above with a thiophene ring, fused or not
Assay codes: A = TRPML1 agonist; B = gsp antag; C = ClpP mod; D = gsp agonist; E = TRPML1 blocker; F = Menin MLL FP FL
CC(NC(=S)NCCc1ccccc1)C(c1cccs1)N1CCN(Cc2ccccc2)CC1 (stereo unspecified)
  A: 0.7; B: -11%; C: 2.8%; D: -88%[inhibitor]; E: 16; F: -2.8

O=C(Cc1ccc(S(=O)(=O)N2CCOCC2)s1)N1CCN(S(=O)(=O)c2ccc(Cl)cc2)CC1
  A: 0.1; B: -18%; C: 0.7%; D: -21%; E: -1; F: ·

Part of the list above, comma-delimited.
compound,TRPML1 agonist,gsp antag,ClpP mod,gsp agonist,TRPML1 blocker,Menin MLL FP FL
N#CCCN(Cc1ccncc1)C(=S)NC1CC2C=CC1C2 (stereo unspecified),-0.8,5%,·,9%,11,-2.9
COC(=O)NCC(c1cccnc1)N1CCN(c2ccccc2)CC1 (stereo unspecified),-0.1,-3%,-3.0%,-2%,-5,2.7

Next part.
Assay codes: A = TRPML1 agonist; B = gsp antag; C = ClpP mod; D = gsp agonist; E = TRPML1 blocker; F = Menin MLL FP FL
CNS(=O)(=O)c1cccc(C(=O)OCC(=O)Nc2ccc(N3CCCCC3)cc2)c1
  A: 1.1; B: -15%; C: -1.1%; D: -13%; E: 13; F: 1.0

CCOCCCNC(=S)NCCCNc1nc2cc3c(cc2cc1C#N)OCO3
  A: -0.5; B: -2%; C: 10µM*; D: 13%; E: -23; F: 0.3

CCN(CC(=O)NCc1cccs1)S(=O)(=O)c1c(F)cccc1F
  A: -0.8; B: -7%; C: 1.6%; D: -16%; E: -3; F: ·

CCOC(=O)c1ccccc1NC(=O)CSc1ccc(-c2sc(C)nc2C)nn1
  A: 2.9; B: ·; C: -4.5%; D: ·; E: 14; F: ·

CN1CCN(c2ccccc2NC(=O)Cn2ncc3c([nH]c4ccccc43)c2=O)CC1
  A: 0.3; B: 6%; C: -7.2%; D: -7%; E: 1; F: ·

CCOC(=O)c1cc(C(=O)OCC)cc(-n2cc(O)c(C(=O)OCC)n2)c1
  A: 1.4; B: ?; C: -0.3%; D: -67%[inhibitor]; E: -4; F: 2.0

CCc1ccc(NCc2ccc(OC)c(Cn3ccnc3)c2)cc1
  A: ·; B: -10%; C: 0.5%; D: 27%; E: ·; F: 1.6

CC1=CC(C)(C)NC(=O)N1c1ccc(C)cc1
  A: 1.0; B: 1%; C: ·; D: 12%[15.4 µM]; E: 23; F: -0.6

C=CCNC(=S)Nc1cccc2[nH]ncc12
  A: 1.1; B: 3%; C: -2.5%; D: 7%[15.4 µM]; E: -15; F: -1.0

N=c1sccn1CC(=O)Nc1ccc([N+](=O)[O-])cc1Cl
  A: 0.5; B: 18%; C: -2.6%; D: -37%[inhibitor]; E: 4; F: -0.1

COc1ccnc(Oc2ccc(F)cc2)c1C(=O)N/C=N/OCc1c(Cl)cccc1Cl
  A: 3.0; B: -4%; C: 23%; D: -11%; E: 79; F: 2.8

O=C(CSc1nnc(-c2c[nH]c3ccccc23)o1)c1ccccc1
  A: 0.4; B: 9%; C: -2.8%; D: 7%; E: -8; F: -3.0

CN(C)S(=O)(=O)Oc1ccccc1C(=O)Nc1ccc(F)cc1F
  A: -0.7; B: -4%; C: ·; D: 9%; E: 7; F: 5.8

CCOC(=O)N1CCN(C(=O)COC(=O)c2cccc(S(C)(=O)=O)c2)CC1
  A: 0.5; B: 3%; C: ·; D: 26%[15.4 µM]; E: 5; F: ·

CN(C(=O)CCNC(=O)N1CC(=O)Nc2ccccc21)C1CCCCC1
  A: 0.4; B: 2%; C: -1.4%; D: -25%; E: 30; F: -0.8

Cc1c(NC(=O)/C(=C\c2ccccc2)NC(=O)c2ccccc2)c(=O)n(-c2ccccc2)n1C
  A: 1.1; B: 0%; C: 0.5%; D: -1%; E: 8; F: 5.6

CN(C)c1nc(N)nc(CSc2nnnn2-c2ccccc2)n1
  A: -0.9; B: 3%; C: 0.1%; D: -9%; E: 29; F: -2.9

O=C(NC(=S)NC1CCSC1=O)c1cccs1 (stereo unspecified)
  A: 0.8; B: 1%; C: -5.1%; D: -13%; E: 12; F: 0.8

O=C(COC(=O)C1CCN(S(=O)(=O)c2ccc3c(c2)OCCO3)CC1)Nc1ccccc1OC(F)F
  A: -0.2; B: -10%; C: -5.8%; D: 9%; E: -8; F: -1.0

Cc1cc2c(cc3c(SCC(=O)Nc4ccc(Cl)cc4F)nncn32)o1
  A: 0.9; B: ·; C: 1.6%; D: ·; E: -21; F: ·

Cc1ccc(-c2cc(C(F)(F)F)n3ncc(C(=O)N4CCN(C)CC4)c3n2)cc1
  A: -0.7; B: 9%; C: 18%; D: 2%; E: -12; F: 0.9

CN(C)c1ccc(/C=N/Nc2cc(N3CCOCC3)nc(N3CCOCC3)n2)cc1
  A: 1.8; B: ?; C: ·; D: 3%[15.4 µM]; E: 12; F: -2.4

CC(C)(C)N(NC(=O)Nc1ccccc1)C(=O)c1ccccc1Cl
  A: 0.3; B: 4%; C: -19%; D: -31%[inhibitor]; E: 46; F: 2.3

Cc1ccc(-c2nc3ccccc3o2)cc1NC(=O)c1ccc2c(c1)OCO2
  A: -0.5; B: -17%; C: ?; D: 22%; E: -14; F: 0.8

This is a random part of the collection, and some 2.1% of all compounds hit somewhere here.
